# Screening results: PubChem BioAssay, Fisher Drug Discovery Resource Center
# NPYLR7 agonist – activates Aedes aegypti NPYLR7 receptor; HEK293T NPYLR7/Galpha15, GCaMP6s calcium fluorescence; activation, % at 10 µM; 270,000 tested, 0.15% active; in the data active = activation above about 40%;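 also: 0% = vehicle and 100% = reference agonist at the receptor; some compounds past the cut are filed as inactive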
# NPYLR7 agonist max-min – second read-out of NPYLR7 agonist, no call of its own (marks repeat the call); activation, %; measured here: Max-Min RFU normalised activation; some inactives read as strong as hits;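 span of the calcium signal over five minutes; 0% = vehicle and 100% = native peptide agonist; compound fluorescence can raise it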
# * hit, by the source's call; & = joins results of further samples. This is a subset. The share of hits here may be higher or lower than overall.
SMILES,NPYLR7 agonist,NPYLR7 agonist max-min
COc1cccc(CN(Cc2ccc(F)cc2)CC(O)COCC(C)C)c1OC (configuration not stated),25,33
O=C(C(c1ccccc1)c1ccccc1)N1CCSC1c1cccc(Cl)c1 (configuration not stated),2,7
Cc1cccn2c(CNCCc3nc4ccccc4[nH]3)c(C(=O)N3CCOCC3)nc12,2,1
Cc1nc(NCCNS(=O)(=O)c2ccc(C(F)(F)F)cc2)cc(-n2cccn2)n1,-9,-14
NS(=O)(=O)c1ccc2ccccc2c1,2,0
COc1ccc(C(=O)N(Cc2cc(NC(=O)c3ccco3)ccc2N(C)C)C(C)c2ccccc2)cc1 (configuration not stated),20,37
COCCCN(CC(=O)N(Cc1cccn1Cc1ccccc1)C(C)C)C(=O)c1ccc(C(C)(C)C)cc1,12,7
O=C(NCCCn1nc(-c2ccncc2)ccc1=O)c1ccccc1C(F)(F)F,16,11
O=C(N1CCN(c2nccc(-c3ccc(Oc4ccccc4)cc3)n2)CC1)C(F)(F)C(F)F,10,10
c1ccc(-c2ncn(CCc3nc4c(s3)CCC4)c2C2CCOC2)cc1 (configuration not stated),7,6
COc1ccc(-n2c(SCCCCC(=O)N3CCN(C(=O)c4ccccc4Br)C(C)C3)nnc2-c2ccco2)cc1 (configuration not stated),10,7
Cc1nnc(NC(=O)CSc2nc3c(cnn3CCO)c(=O)[nH]2)s1,5,5
CCN(Cc1ccncc1)C(=O)c1ccc(-c2ccc(Oc3ccccc3)cc2)s1,4,-1
CC(=O)Nc1cccc(OCc2ccc(F)cc2)c1,-1,-2
Cc1ccc(C(=O)N(Cc2nccn2Cc2ccccc2Cl)CC(C)C)cc1,27,22
COc1ccccc1C(=O)CN1C(=O)C(C)ON=C1c1ncccc1C (configuration not stated),9,10
CC1(C)C2(C(=O)NC3CC4CCC(C3)N4Cc3ccc4c(c3)OCO4)CC[C@@]1(C)C(=O)O2 (some centres not stated),1,2
CC(C)(NC(=O)c1cccs1)C(=O)NC1CCCCCC1,11,7
c1ccc(Cn2cc(-c3cccc(CN4CCOCC4)c3)cn2)cc1,-1,2
CCOC(=O)C1(C)CCN1C(=O)c1oc2ccccc2c1C (configuration not stated),-3,-8
CCOC(=O)c1sc(NC(=O)COc2c(C)cc(Cl)cc2C)nc1C,-2,-6
Cc1nc(-c2cccnc2)ncc1C(=O)N1CCN2CCNC(=O)C2C1 (configuration not stated),14,4
Cc1ccc(CNc2cccc(C(=O)N(C)CC3CCCCO3)c2)s1 (configuration not stated),5,3
CCOC(=O)C1(C)CCN1C(=O)c1cc(Br)cc2c1OCC2 (configuration not stated),-4,-8
CCN(CC)C(=O)Oc1ccc2c(ccn2Cc2ccccc2F)c1NC(=O)Cc1cccc(OC)c1,7,11
Cc1ccc(F)c(OCc2nc(Cc3ccccc3F)no2)c1F,8,4
CCN(C(=O)c1ccnc(N2CCN(C)CC2)c1)c1ccncc1,1,0
O=C(CSc1ncn[nH]1)NCCc1cccc(Cl)c1,-6,-6
FC(F)C(F)(F)C1=NCCN=C(c2ccccc2)C1,2,-2
CCc1nc2ccc(C(=O)NCCC(C)C)cn2c1N(C)Cc1nccs1,-4,-8
COCCSc1ccc(-c2ccncc2)nn1,30,19
CCC(=O)Nc1ccc(NC2Cc3ccccc3C2)cc1,3,2
O=C(C1CCCCC1)N1CC[C@H](c2nc3ncccc3[nH]2)C1,-11,-18
COc1ccc(-c2cc(C(=O)N3CCN(C/C=C/c4ccccc4)CC3)n3nc(-c4ccc(Cl)cc4)cc3n2)cc1,10&20,11&15
Cc1cc(Oc2cnn(-c3cccc(F)c3)c(=O)c2Nc2cccc(C(=O)N3CCOCC3)c2)ccc1Cl,-3,2
CC(=O)Oc1c(Br)cc(N(C(C)=O)S(=O)(=O)c2ccc(C)cc2)c2ccccc12,8,9
CCOc1ccc(C(=O)Nc2cccc(C(=O)Nc3cccc4ccccc34)c2)cc1[N+](=O)[O-],-3,4
COc1ccc(N2CCn3c2nnc(C(=O)NCC(C)O)c3=O)cc1 (configuration not stated),-1,-3
c1ccc2c(c1)CCN(C1=Nc3cccc4cccc1c34)C2,6,4
COCCn1c(N/N=C\C(Br)=Cc2ccccc2)nc2c1c(=O)[nH]c(=O)n2C,-3,-5
Cc1ccc(CN2CCCN(C(=O)c3ccc(C(N)=O)nc3)CC2)cc1,3,3
Cc1ccsc1CNc1ccccc1C(=O)NCCc1cnc[nH]1,7,-1
COc1ccccc1C(=O)NCc1nnc(SCc2ccccc2C)n1-c1cc(Cl)ccc1C,-5,-5
CN(C)CCCNC(=O)C(=O)Nc1ccc2c(c1)N(S(=O)(=O)c1cccs1)CCC2,3,-1
Cc1nc(C(F)(F)F)nc(N2C[C@H]3C[C@H](O)[C@H](O)C[C@H]3C2)c1C,17,9
Cc1ccn2c(=O)c(NC(=O)c3ccccc3C(F)(F)F)c(C)nc2c1,-6,-5
CC(C)c1ccc2cc(C(=O)N3CCCC(CCN)C3)[nH]c2c1 (configuration not stated),1,0
CCN(Cc1nccn1C)C(=O)c1ccc(N(C)Cc2ccsc2)nc1,-2,-2
O=C(Nc1ccc2c(c1)OCO2)C(C1CCCC1)N1CCN(C(=O)c2ccc(Cl)cc2)CC1 (configuration not stated),-6,6
Cc1ccc(C#N)c(=O)[nH]1,4,2
O=C(CNC(=O)c1ccco1)N=Nc1c(O)n(CCc2ccccc2)c2ccccc12,-7,-15
COc1cccc(CNc2cccc(C(=O)N3CCSCC3)c2)c1,-14,-18
CCCCCc1ccc(C(=O)Nc2ccc(N3CCN(c4ccccc4OC)CC3)c(C(=O)NCCCOCC)c2)cc1,11,10
CSCCC(=O)N1CCN(c2nccc(-c3ccc4c(c3)OCO4)n2)CC1,5,0
CCCCNC(CN1CCCCC1)Oc1ccccc1OC (configuration not stated),-4,1
Cc1ccc(-n2ncc3c(=O)n(NC(=O)c4ccc(Cl)c([N+](=O)[O-])c4)cnc32)cc1,1,-3
O=C(NCCCO)c1nnc2n(c1=O)CCN2c1ccccc1,1,-1
COc1cccc(CN2CCC2(C)C(=O)NCCc2ccccn2)c1OC (configuration not stated),11,4
Cc1ccc(NC(=O)NC2(CO)CCCC2)s1,-1,-4
CCNc1nc(NC(C)C)nc(N(C#N)Cc2ccccc2)n1,-1,-3

# Another view of part of the listing above:
# Values run as follows: NPYLR7 agonist, NPYLR7 agonist max-min
- O=C(C1CCCCC1)N1CC[C@H](c2nc3ncccc3[nH]2)C1
→ -11, -18
- COc1ccc(-c2cc(C(=O)N3CCN(C/C=C/c4ccccc4)CC3)n3nc(-c4ccc(Cl)cc4)cc3n2)cc1
→ 10&20, 11&15
- Cc1cc(Oc2cnn(-c3cccc(F)c3)c(=O)c2Nc2cccc(C(=O)N3CCOCC3)c2)ccc1Cl
→ -3, 2
- CC(=O)Oc1c(Br)cc(N(C(C)=O)S(=O)(=O)c2ccc(C)cc2)c2ccccc12
→ 8, 9
- CCOc1ccc(C(=O)Nc2cccc(C(=O)Nc3cccc4ccccc34)c2)cc1[N+](=O)[O-]
→ -3, 4

# The listing picks up; the 3 compounds before the break are reprinted first.
SMILES,NPYLR7 agonist,NPYLR7 agonist max-min
COc1cccc(CN2CCC2(C)C(=O)NCCc2ccccn2)c1OC (configuration not stated),11,4
Cc1ccc(NC(=O)NC2(CO)CCCC2)s1,-1,-4
CCNc1nc(NC(C)C)nc(N(C#N)Cc2ccccc2)n1,-1,-3
CCCNC(=S)N1CCc2cc(OC)c(OC)cc2C1CN (configuration not stated),6,8
CN(C)c1ccc(CNC(=O)C2(C)Cc3c(-c4ccc(N(C)C)cc4)ccnc3O2)cc1 (configuration not stated),-13,-14
O=C(Cn1nc2ccc(SCc3ccc(Cl)cc3)nn2c1=O)Nc1cccc(F)c1,0,-1
CN(C(=O)C1CC(=O)N(c2ccccc2)C1)c1ccc(F)c(F)c1 (configuration not stated),3,1
COc1cccc(CN2CCCC3(CCN(Cc4cccn4-c4ccccn4)C3)C2)c1OC (configuration not stated),-1,-5
CC1(C)CC2=NN(c3ccccc3)P(=O)(Nc3ccccc3)C2=C(N2CCOCC2)C1 (configuration not stated),9,7
CC(C)N1CCC1(C)C(=O)Nc1ccccc1F (configuration not stated),1,-1
Nc1ncnc(NN=Cc2ccc(C3=CCCC3)s2)c1[N+](=O)[O-],-1,-2
COc1cc(-c2c(NC(=O)C3CCCCC3)oc3ccccc3c2=O)cc(OC)c1OC,-4,-4
CC(C)CN1CCC(NCc2nncn2C2CCCCC2)CC1,3,1
COc1cc(OC)cc(C2=N/C(=C\C=C\c3ccccc3OC)C(=O)O2)c1,2,2
Cc1cc(NC(=O)Nc2ccc(N(C)C)cc2)c2cc(F)cc(F)c2n1,5,-3
COc1ccc(OCCN2CCc3ccccc3C2)cc1,7,2
COC(=O)Cn1c(=O)c2c(nc3n(-c4cc(C)cc(C)c4)c(C)c(C)n23)n(C)c1=O,4,2
Cc1ccccc1-n1cnnc1SCC(=O)c1ccc(N2CCCC2=O)cc1,-1,7
CC(c1nnc(-c2ccccc2)o1)N1CCCC1c1ccsc1 (configuration not stated),4,8
O=c1[nH]c(-c2ccc(OC(F)F)cc2)nc2sc3c(c12)CCC3,3,1
CCCCn1c(N)c(N(CC(C)C)C(=O)CCCOC(=O)c2ccc(C#N)cc2)c(=O)[nH]c1=O,-3,-4
CCN1CCCC1CN(CC1CCN(CCOC)CC1)C(=O)c1ccccn1 (configuration not stated),-1,-4
O=C(CCc1nnc(Cc2c[nH]c3ccccc23)o1)NC12CC3CC(CC(C3)C1)C2,-1,-2
COc1cc(C(=O)NCCNc2ccc(Nc3ccncc3)nn2)cc(OC)c1OC,11,-1
CSCCNC(=O)C1CCN(c2nc(C)c3cc(C)c(C)cc3n2)CC1,18,6
CCN(CC)C(=O)c1sc(NC(=O)c2ccc(F)cc2)c(C(=O)OC(C)C)c1C,-10,-14
Cn1ccnc1C(=O)C1CCCN(C(=O)Cn2nnnc2CN2CCCC2)C1 (configuration not stated),2,0
COC(=O)c1ccc(S(=O)(=O)Nc2cc(OC)ccc2OC)cc1,4,-1
COc1cc(OC)c(OC)cc1C=NNC1=NCCCCC1,6,5
CCC(C)NS(=O)(=O)c1ccc(NC(C)=O)cc1 (configuration not stated),2,-1
COc1ccc(-c2nc3c4c(ncn3n2)CCN(C(=O)c2cccc(F)c2F)C4)cc1,0,-3
Clc1cc(CNCc2ccco2)cc2c1OCCO2,-3&11,-3&8
CC1CCN(Cc2nnnn2CC(=O)N2CCC(c3ccncc3)CC2)CC1,9,3

# Shown with tabs: part of the list above
structure	NPYLR7 agonist	NPYLR7 agonist max-min
COc1cccc(CN2CCCC3(CCN(Cc4cccn4-c4ccccn4)C3)C2)c1OC (configuration not stated)	-1	-5
Cc1nc(NCCNS(=O)(=O)c2ccc(C(F)(F)F)cc2)cc(-n2cccn2)n1	-9	-14
Cc1ccc(CNc2cccc(C(=O)N(C)CC3CCCCO3)c2)s1 (configuration not stated)	5	3
CCN(CC)C(=O)c1sc(NC(=O)c2ccc(F)cc2)c(C(=O)OC(C)C)c1C	-10	-14

# The listing continues:
SMILES,NPYLR7 agonist,NPYLR7 agonist max-min
Cc1cnc(C(=O)N(CC2CCN(CCc3ccccc3C)CC2)C2CCCC2)cn1,11,4
CCOc1cc(CNc2nnnn2C)cc(Br)c1OCc1ccccc1Cl,-9,-13
Cc1ccsc1CN(Cc1ccc(F)cc1)C(=O)CN(CC1CCCO1)C(=O)c1cc(C(F)(F)F)cc(C(F)(F)F)c1 (configuration not stated),-6,6
CN(Cc1ncc[nH]1)C(=O)CCN1CCCCO1,1,-3
O=C(NCCN1CCCC(O)C1)c1cn(Cc2cccc(C(F)(F)F)c2)nn1 (configuration not stated),7,5
CN(Cc1sc2ccccc2c1Cl)C(=O)Cn1cccnc1=O,-9,-12
Cc1ccc(-n2c(C)cc(CC(=O)O)c2C)cc1,1,0
COCCS(=O)(=O)c1ccc(C(=O)N(C)C2CCC(C)(C)CC2)cc1,2,-1
O=C(CSc1ccc2nnc(CCNC(=O)c3ccccc3)n2n1)Nc1ccc(Cl)cc1,6,-3
Cc1ccc(NC(C)c2cccc(F)c2)cc1N1CCCS1(=O)=O (configuration not stated),9,3
Cc1ccc(C(CCN2CCCC2)Oc2cccc(C(=O)N[C@H]3CCOC3=O)c2)o1 (some centres not stated),0,17
CC(Nc1nc(-c2cccc(Br)c2)nc2ccccc12)c1ccccc1 (configuration not stated),-5,-3
Oc1ccccc1SC(F)(F)F,1,0
CCOC(=O)c1ccc(NS(=O)(=O)c2cc([N+](=O)[O-])ccc2Cl)cc1,-2,-5
Cc1cc(O)c(Sc2ccccc2)c(=O)o1,4,9
Cn1cccc1/C=N\NC(=O)CSc1nnc(-c2ccccc2)n1-c1ccccc1,-5,-12
Cc1cc(OCC(N)=O)ccc1NC(=O)c1cc(Cl)ccc1OC(C)C,0,0
COc1ccc(NC(=O)N2CCC3(CC2)SCCN3C(=O)CC(C)C)cc1,9,10
COc1ccccc1CNc1ccc2nnc(CCNC(=O)c3ccc(C)cc3)n2n1,2,-9
S=c1[nH]nc(Nc2ccccc2)s1,0,1
N#Cc1ccccc1C(=O)N1CCOC(COCc2ccccc2F)C1 (configuration not stated),5,5
COc1cccc(CC2(CO)CCN(c3ccc(-c4nccn4C)nn3)CC2)c1,31,21
Fc1ccccc1Nc1nn(CN2CCCC2)c(=S)s1,1,26
CC(=O)OC(C(=O)N1CCC(c2nc(-c3ccc(Cl)cc3)no2)CC1)c1ccccc1 (configuration not stated),7,3
OCc1cc(-c2nccc(C3CCCC3)n2)ccc1F,3,3
COCc1ccccc1CNC(=O)Cn1c(=O)oc2cccnc21,-3,-2
Cc1cc(C(F)F)c2c(N)c(C(=O)Nc3cc(C)on3)sc2n1,5,-1
COc1ccc(-c2c(Cc3ccccc3)[nH]n3c(=O)c4c(nc23)CCC4)cc1,-13,-16
O=C(NCCc1cn2ccsc2n1)c1cn(-c2ccccc2)nn1,3,-8
COC(=O)CCCC(=O)Nc1cccc(-c2cccc(-c3ccccc3OC)n2)c1,-6,-11
